CSC inhib: cancer stem cell viability inhibitors, primary screen, luminescence; cancer stem cell-like cells viability; inhibition, % at 7.5 µM; actives 1.1% (n = 300,000); AID 2717, 2010;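 active means mean at 75% or more and at least half the replicates too; inconclusive means mean and replicates disagree; tested in HMLE shEcad cells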;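 further: 0% = median of negative and 100% = median of positive control wells; the first replicate is given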
eIF4H inh: human eIF4H binding inhibitors, primary screen, translation initiation inhibitor project, biochemical, uHTS, fluorescence polarization; Eukaryotic translation initiation factor 4H (Homo sapiens), Q15056; eIF4H fluorescence polarization binding assay; inhibition, % at 35 µM; actives 0.94% (n = 290,000);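 active means 50% or more with normal probe brightness, or confirmed in later tests; inconclusive means above 50% with abnormal brightness, or retests that disagree; inactive means below 50% or failed in later tests; about a fifth of its hits are not listed in these tables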;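 further: calls also rest on retests at 20 µM and on dose response follow-up; 0% = protein and probe with vehicle and 100% = probe without protein; strong numbers were not always called active; many hits fall short of the cut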
Rce1 inh: yeast Rce1p protease inhibitors, primary screen, biochemical, fluorescence, cell-free homogeneous. calls only. yeast membranes, quenched prenylated peptide cleavage fluorescence. actives 0.27% (n = 290,000). CAAX prenyl protease 2 (Saccharomyces cerevisiae (strain ATCC 204508 / S288c)), Q03530;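 active means fall in fluorescence gain of 50% or more versus controls, with final raw signal at or below 3038400; inconclusive means same 50% fall but final raw signal above 3038400; inactive means fall in fluorescence gain under 50%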;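 further: plate controls were neutral control wells for no effect and wells lacking membranes for full effect; tested at 10 µM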
Target sequence (Q03530 whole entry, looked up): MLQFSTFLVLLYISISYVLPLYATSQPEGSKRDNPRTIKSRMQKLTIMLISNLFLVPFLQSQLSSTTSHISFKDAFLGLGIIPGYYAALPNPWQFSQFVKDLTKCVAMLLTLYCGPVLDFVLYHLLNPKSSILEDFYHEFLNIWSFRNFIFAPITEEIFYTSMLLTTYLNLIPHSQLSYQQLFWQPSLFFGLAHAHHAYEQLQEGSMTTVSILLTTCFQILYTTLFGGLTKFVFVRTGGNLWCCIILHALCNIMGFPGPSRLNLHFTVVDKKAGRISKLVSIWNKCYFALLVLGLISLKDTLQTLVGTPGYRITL
HIV Env fusion: inhibitors of HIV-1 Env-driven cell-cell fusion, primary screen, HeLa-JRFL effector, CEM21 target cells, luciferase; inhibition, % at 12.3 µM; AID 651610, 2012; actives 1.1% (n = 360,000);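 active means mean replicate inhibition score of at least 50 and every replicate individually at or above 50; inconclusive means only one of the two criteria met; inactive means mean below 50 and not all replicates reaching 50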;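 further: 0% = plate neutral controls and 100% = maraviroc near 300 nM; one replicate is shown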
UUG fidelity: modulators of yeast start codon fidelity, primary screen, whole organism, S. cerevisiae, single point, plate reader; S. cerevisiae UUG-firefly luciferase reporter, luminescence/redox ratio; activity score, % at 18.7 µM; actives 0.13% (n = 350,000); AID 602363, 2012;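 active means replicate mean at a twofold rise or more, about +100% in these data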;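 further: firefly luciferase made from a UUG start codon reports start codon fidelity; reporter light over untreated wells divided by growth signal over untreated wells; some hits fall short of that in this replicate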
MT1-MMP act inh: blockers of MT1-MMP proenzyme processing, primary screen, HT1080 RFP-PRO-GFP cells, GFP/RFP fluorescence; Matrix metalloproteinase-14 (Homo sapiens), P50281; GFP/RFP ratio fluorescence, overnight; percent of plate control window, DMSO zero; GFP/RFP ratio change, % at 20 µM; actives 0.061% (n = 360,000);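 active means GFP/RFP ratio change of at least 30% with cell ATP level not reduced by more than half and red fluorescence within 50% of control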; further: strong numbers were not always called active
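Assay system: HT1080 RFP-PRO-GFP cells | Dosing: 20 µM single dose, 1% DMSO | Incubation: Cells overnight before dosing, compound overnight, 37 °C, 5% CO2 | Evaluation: GFP/RFP fluorescence ratio | Control set: DMSO-only wells and HT1080 RFP-L50D-GFP cell wells as references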
PABP FP inh: PABP poly(A) RNA binding inhibitors, primary screen, biochemical, fluorescence polarization, uHTS. inhibition, % at 35 µM. AID 2014, 2009. actives 1% (n = 290,000). Polyadenylate-binding protein 1 (Homo sapiens), P11940;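 active means 50% or more with normal probe brightness, or confirmed in later tests; inconclusive means above 50% with abnormal brightness, or retests that disagree; inactive means below 50% or failed in later tests; about a fifth of its hits are not listed in these tables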;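 further: calls also rest on retests at 20 µM and on dose response follow-up; controls were probe without protein and protein plus probe with vehicle; some compounds called inactive have numbers as strong as hits; many hits fall short of the cut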
Target sequence (P11940 whole entry, looked up): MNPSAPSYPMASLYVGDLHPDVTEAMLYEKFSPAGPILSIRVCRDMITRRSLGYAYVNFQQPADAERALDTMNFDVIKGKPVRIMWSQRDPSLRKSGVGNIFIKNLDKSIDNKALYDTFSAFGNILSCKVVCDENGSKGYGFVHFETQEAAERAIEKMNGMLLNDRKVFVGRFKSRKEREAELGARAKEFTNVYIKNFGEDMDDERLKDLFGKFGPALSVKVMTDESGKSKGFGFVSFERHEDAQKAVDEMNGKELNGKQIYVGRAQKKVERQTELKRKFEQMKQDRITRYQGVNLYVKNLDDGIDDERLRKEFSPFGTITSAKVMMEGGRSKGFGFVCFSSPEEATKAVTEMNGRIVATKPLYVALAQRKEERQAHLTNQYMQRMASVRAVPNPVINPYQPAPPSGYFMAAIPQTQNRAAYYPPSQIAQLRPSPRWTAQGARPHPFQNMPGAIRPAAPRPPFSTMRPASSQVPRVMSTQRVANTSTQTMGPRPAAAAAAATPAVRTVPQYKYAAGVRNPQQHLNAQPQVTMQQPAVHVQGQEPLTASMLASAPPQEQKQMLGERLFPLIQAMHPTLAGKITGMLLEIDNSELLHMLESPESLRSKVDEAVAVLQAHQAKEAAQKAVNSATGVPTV
eIF4H inh retest: further read-out of eIF4H inh, marked with its call; inhibition, %; compound at 20 µM; confirmation average;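 mean of two retest wells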
PABP FP inh retest: recorded beside PABP FP inh, whose call it bears; inhibition, %; compound at 20 µM; confirmation repeats;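 mean of two retest wells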
MT1-MMP act inh RFP: recorded beside MT1-MMP act inh, whose call it bears; RFP signal change, %; measured here: RFP expression control read;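 0 = vehicle wells; hits needed this value within 50% of zero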
* marks the source's active call; other numbers are inactive results; i = inactive; ? = inconclusive; . = not tested or not shown; & = joins results of further samples. The list is partial; rates above refer to the full screens.

Start of the listing, in advance (two entries):
SMILES	CSC inhib	eIF4H inh	Rce1 inh	HIV Env fusion	UUG fidelity	MT1-MMP act inh	MT1-MMP act inh RFP	PABP FP inh	others
Cn1ncc([N+](=O)[O-])c1C(=O)N/N=C/c1c[nH]c2ccccc12	6	6	i	-2	.	-4	0	-6
Cc1ccc(S(=O)(=O)N2CCN(C(=O)c3ccccc3)CC2)c(C)c1NS(C)(=O)=O	-10	1	i	5	-25	2	0	-7

The list itself, repeating the preview:
SMILES	CSC inhib	eIF4H inh	Rce1 inh	HIV Env fusion	UUG fidelity	MT1-MMP act inh	MT1-MMP act inh RFP	PABP FP inh	others
Cn1ncc([N+](=O)[O-])c1C(=O)N/N=C/c1c[nH]c2ccccc12	6	6	i	-2	.	-4	0	-6
Cc1ccc(S(=O)(=O)N2CCN(C(=O)c3ccccc3)CC2)c(C)c1NS(C)(=O)=O	-10	1	i	5	-25	2	0	-7
Cc1noc(C)c1C(=O)Nc1ccc(-n2ccc(C(F)(F)F)n2)cc1	-7	3	i	.	3	5	-5	12
O=C(CSc1nnc(C2CC2)n1-c1ccccc1)NCCN1C(=O)CSC1=O	1	15	i	2	.	0	4	-9
O=C(CCC(=O)OCCCC(F)(F)C(F)(F)F)NC1CCCCC1	-4	-14	i	.	-12	2	-5	-3
O=C(NCCOc1ccccc1)C1CCC(=O)N(CCCN2CCOCC2)C1 (stereo not given)	0	5	i	19	-4	-2	4	6
O=C(Nc1nc2ccc(S(=O)(=O)N3CCCC3)cc2s1)c1cccs1	1	-6	i	.	-5	-2	0	19
CC(C)C[C@@H](CN1CCCC1CN1C(=S)NC[C@@H]1Cc1ccc(O)cc1)N1C[C@H](Cc2ccc(O)cc2)N(CC2CCCCCC2)C1=S (stereo not given in full)	.	.	.	?	-12	-9	-19	.
Cc1cc(C)n2nc(CNS(=O)(=O)c3ccc(C)c(C)c3)nc2n1	-6	-3	i	-2	-11	1	1	-13
C=CCS(=O)(=O)N1CCC(CCOc2ccccc2)(C(=O)OCC)CC1	-13	-6	i	25	.	-4	-6	-10
Cc1ccc(Cc2cnc(NC(=O)/C(C#N)=C/c3ccc(-c4ccc([N+](=O)[O-])cc4)o3)s2)cc1	2	-3	i	3	-21	-2	8	-5
O=c1c2c3c(sc2ncn1-n1cccc1)CCCCC3	2	4	i	-89	17	3	-1	0
CN1CCN(CCCNC(=O)c2ccc(/C=C3\Sc4ccccc4N(Cc4ccccc4F)C3=O)cc2)CC1	.	1	i	4	.	-3	-2	2
CCOc1ccc(-n2c(=O)c3c4c(sc3n(CC(=O)NCCCOC)c2=O)CCCCC4)cc1	-8	-5	i	2	-23	0	2	-3
OC[C@@H]1CN(Cc2ccc(F)cc2)C[C@H](n2cnc3c(NC4CC4)ncnc32)O1	.	.	.	-19	-10	-4	1	.
Cc1ccc(N2C(=O)CCC2(C#N)c2ccccc2)cc1 (stereo not given)	-13	-4	.	-14	.	0	4	-4
CC(C)C(NC(=S)NCc1ccccc1)C(=O)O (stereo not given)	-10	2	i	-22	-14	2	6	21
O=C(N/N=C/C1CC=CCC1)c1ccccc1O (stereo not given)	-6	-5	i	.	-15	-1	1	-2
CN1CCCC(OC(=O)COc2ccc(Br)cc2)C1 (stereo not given)	-2	100*	i	.	-6	2	2	0.4*	eIF4H inh retest=84*;PABP FP inh retest=55*
CCOC(=O)CSc1nnc(CNC(=O)c2cc(OCC)c(OCC)c(OCC)c2)n1C	-6	2	.	.	-5	0	-1	-5
O=[N+]([O-])c1ccccc1CSc1ccccn1	-10	1	i	-24	-10	0	2	2
O=C1C=C(O)C(n2cncn2)C(c2cc(F)ccc2F)C1 (stereo not given)	.	0	i	9	.	3	4	1
CC(C)CN1CCN(Cc2cnc(N3CCOCC3)s2)CC1CCO (stereo not given)	-2	-3	i	-1	-5	-3	-2	-7
COc1cc(NC(=S)Nc2ccc3c(c2)OCCO3)cc(OC)c1OC	-14	-4	i	-18	-37	3	0	-6
O=C(NC(=S)Nc1ccccc1C(=O)O)c1ccc(-c2ccc(Br)cc2)o1	15	-7	i	-27	-21	15	-1	17
Fc1ccc2nncc(SCc3ccccc3Cl)c2c1	.	.	.	-5	-12	3	-1	.
CCOC(=O)C1(CCOc2ccccc2)CCN(Cc2ccc(C)o2)CC1	1	-13	i	5	.	-1	3	0
COCCNCCOc1ccc(C)cc1[N+](=O)[O-]	-8	5	i	-46	.	5	11	-6
Cc1nnc2ccc(-c3ccc(NS(=O)(=O)c4ccccc4F)cc3)nn12	-3	.	i	-26	.	6	8	.
O=C(COC(=O)Cn1[nH]c(=O)c2ccccc2c1=O)Nc1ccc2c(c1)OCO2	-12	-8	i	-40	-4	-1	2	2
Cc1cccc(NS(=O)(=O)c2ccc(Br)s2)n1	.	1	i	-9	-17	-4	0	12
Cc1ccc(N2C(=O)CS/C2=C(\C(Cl)=C(Cl)Cl)[N+](=O)[O-])cc1	16	15	i	.	-8	-3	10	28
COc1ccc(C)c2sc(N(CCN(C)C)C(=O)c3cccc(N4C(=O)CCC4=O)c3)nc12	-10	.	i	-6	.	4	3	.
Cc1csc(NC(=O)C2CC(=O)N(Cc3ccco3)C2)n1 (stereo not given)	-8	3	i	-10	.	3	5	1
CN1CCCC1=Nc1ccccc1	.	.	.	4	-17	-1	3	.
O=C(NCCS(=O)(=O)NCC1CCCO1)c1ccccc1 (stereo not given)	-9	.	i	9	-4	4	1	.
O=[N+]([O-])c1ccc(Oc2ccc(-c3nnco3)cc2)c(Cl)c1	7	1	i	3	-10	-3	-7	1
CC(C)(CNC(=O)c1cccc(NS(=O)(=O)c2ccc(Br)cc2)c1)N1CCOCC1	.	-5	i	.	-12	4	-5	-15
O=C(CCc1nnc2n(Cc3ccc(Cl)cc3)c(=O)c3ccccc3n12)N1CCN(c2ccccn2)CC1	14	7	i	.	-7	-1	-8	9
COC(=O)c1ccccc1S(=O)(=O)N1CCC(C(=O)N(C)CCOc2ccccc2)CC1	8	.	i	.	1	0	2	.
CCOC(=O)C1C(=O)Nc2nc3ccccc3n2C1C(C)C (stereo not given)	-9	-8	i	-25	8	4	6	-4
CC(=O)OC(C(=O)NC1CCCCC1)c1ccccc1F (stereo not given)	.	13	i	7	.	-1	1	-5
C[C@H](CO)N1C[C@H](C)[C@@H](CN(C)S(=O)(=O)c2ccccc2F)Oc2ncc(C#Cc3cccnc3)cc2C1=O	.	.	.	-45	-2&-4	0	7	.
CCOC(=O)c1cnn(-c2ccccc2)c1-n1cccc1C(=O)C(=O)N(CC)CC	-2	10	i	-13	.	-2	1	10
O=C1CN(C(=O)c2cc3ccccc3oc2=O)C(c2ccc(F)cc2)c2cc(Br)ccc2N1 (stereo not given)	-3	-1	i	-39	6	-4	4	-2

Quoted from the entries so far (11 entries):
SMILES	CSC inhib	eIF4H inh	Rce1 inh	HIV Env fusion	UUG fidelity	MT1-MMP act inh	MT1-MMP act inh RFP	PABP FP inh	others
CN1CCCC1=Nc1ccccc1	.	.	.	4	-17	-1	3	.
O=C(NCCS(=O)(=O)NCC1CCCO1)c1ccccc1 (stereo not given)	-9	.	i	9	-4	4	1	.
O=[N+]([O-])c1ccc(Oc2ccc(-c3nnco3)cc2)c(Cl)c1	7	1	i	3	-10	-3	-7	1
CC(C)(CNC(=O)c1cccc(NS(=O)(=O)c2ccc(Br)cc2)c1)N1CCOCC1	.	-5	i	.	-12	4	-5	-15
O=C(CCc1nnc2n(Cc3ccc(Cl)cc3)c(=O)c3ccccc3n12)N1CCN(c2ccccn2)CC1	14	7	i	.	-7	-1	-8	9
COC(=O)c1ccccc1S(=O)(=O)N1CCC(C(=O)N(C)CCOc2ccccc2)CC1	8	.	i	.	1	0	2	.
CCOC(=O)C1C(=O)Nc2nc3ccccc3n2C1C(C)C (stereo not given)	-9	-8	i	-25	8	4	6	-4
CC(=O)OC(C(=O)NC1CCCCC1)c1ccccc1F (stereo not given)	.	13	i	7	.	-1	1	-5
C[C@H](CO)N1C[C@H](C)[C@@H](CN(C)S(=O)(=O)c2ccccc2F)Oc2ncc(C#Cc3cccnc3)cc2C1=O	.	.	.	-45	-2&-4	0	7	.
CCOC(=O)c1cnn(-c2ccccc2)c1-n1cccc1C(=O)C(=O)N(CC)CC	-2	10	i	-13	.	-2	1	10
O=C1CN(C(=O)c2cc3ccccc3oc2=O)C(c2ccc(F)cc2)c2cc(Br)ccc2N1 (stereo not given)	-3	-1	i	-39	6	-4	4	-2

(next part)
SMILES	CSC inhib	eIF4H inh	Rce1 inh	HIV Env fusion	UUG fidelity	MT1-MMP act inh	MT1-MMP act inh RFP	PABP FP inh	others
Cc1ccc(CNC(=O)C2CCC(=O)N2Cc2ccccc2Cl)cc1 (stereo not given)	.	-6	i	9	-4	-1	-1	-6
NC(=O)C1CCN(C(=O)c2cc3c(s2)CCCCC3)CC1	.	.	.	-21	-18	-1	-2	.
CC(C)c1ccccc1NC(=O)Cn1c(/C=C/c2ccccc2)nc2ccccc21	30	4	i	.	.	.	.	3
COc1ccc(/C=N/N2CCN(Cc3ccccc3)CC2)cc1	-11	-6	i	8	-3	1	5	4
Oc1c(C(c2ccc(Cl)cc2)N2CCCC2)cc(Cl)c2cccnc12 (stereo not given)	99*	15	i	-21	.	-7	-1	8
COc1ccc(/C=C2\Oc3cc(OCC(=O)N4CCC[C@H]4C(=O)O)ccc3C2=O)c(OC)c1OC	-4	-10	i	.	-15	4	1	8
Cc1cc(C(=O)CS(=O)(=O)c2ccc(F)cc2)cc(C)c1O	-5	7	i	-28	17	-3	0	-4
O=C(CSc1nnc2scc(-c3ccccc3)n12)Nc1ccc2c(c1)OCCO2	5	-9	i	.	.	.	.	-5
Cc1nnc2n(Cc3ccccc3)c(=O)c3c4c(sc3n12)COC(C)(C)C4	-1	-2	i	.	-11	6	6	-6
COc1cccc(CN2C(=O)c3cccc(N)c3C2=O)c1	-1	88*	i	-15	.	-5	0	5.5*	eIF4H inh retest=110*;PABP FP inh retest=64*
Cc1ccc2[nH]c(=O)c(CN(CCCN(C)C)C(=O)Nc3ccc(Cl)cc3)cc2c1	16	-8	i	-8	7	-10	-6	-11
Nn1c(SCC(=O)NNC(=O)c2ccccc2)nnc1-c1ccccc1F	-10	.	i	-16	-17	-4	1	.
CCCCC(=O)Nc1ccc(Br)cn1	8	-4	i	-192	-2	-1	3	-13
O=C(/C=C/c1ccc2ccccc2n1)N1CCN(c2ccccc2)CC1	-8	28	i	-22	.	-10	2	9
CCN1CCN(S(=O)(=O)c2c(C)[nH]c(C)c2C(=O)N2CCCCC2)CC1	.	82	i	9	0	-7	0	2	eIF4H inh retest=0;PABP FP inh retest=2
CC(C)(C)c1ccc(-c2cnco2)cc1	-7	-1	i	21	-24	-13	-6	-4
O=C(Nc1ccc(Br)cc1)c1ccccc1Br	6	-4	i	-53	-12	3	2	-10
CCCCc1cc(=O)oc2cc(OCC(=O)Nc3cccnc3)c(Cl)cc12	-13	13	i	3	0	0	-11	-2
CCOCCCNC(=S)NCCNc1nc2ccc(C)cc2cc1C#N	-10	2	i	-3	.	9	5	-23
